NPYLR7 ag: mosquito NPYLR7 agonism | HEK293T NPYLR7/Galpha15, GCaMP6s calcium fluorescence | activation, % at 10 µM | hit rate 0.15% among 270,000; in the data active means activation above about 40%;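 further: 0% = vehicle and 100% = reference agonist at the receptor; some compounds past the cut are filed as inactive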
NPYLR7 ag max-min: further read-out of NPYLR7 ag, marked with its call; activation, %; measured here: Max-Min RFU normalised activation; some inactives read as strong as hits;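 span of the calcium signal over five minutes; 0% = vehicle and 100% = native peptide agonist; compound fluorescence can raise it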
Starred values were filed as active, the others as inactive.

SMILES | NPYLR7 ag | NPYLR7 ag max-min
COc1ccccc1CN1C(=O)C(C)Sc2ccc(C(C)=O)cc21 (stereo unspecified) | -1.2 | -4.3
COc1cc2c(cc1OC)C(c1cccc(C(F)(F)F)c1)N(C(=O)COCc1ccccc1)CC2 (stereo unspecified) | -3.4 | 9.8
COc1ccc(CCn2nc(C(=O)N(C)C)c3c2CCN(C(=O)c2n[nH]c4c2CCCC4)C3)cc1 | 20.2 | 7.3
CS(=O)(=O)c1cccc(NC(=O)c2ccc(COc3ccccc3)o2)c1 | 5.5 | -1.2
COc1ccc(Br)cc1S(=O)(=O)Nc1ccc(C)c(Cl)c1 | 5.3 | 4.2
O=C([C@@H]1Cc2nc[nH]c2CN1)N1CCOCC1 | -8.5 | -13.3
COCCCNC(=O)c1cc(-c2ccccc2)n(-c2ccc(OC)cc2OC)c1C | 22.2 | 19.7
Cc1ccc(S(=O)(=O)N2CCN(C(=O)c3ccc[nH]3)CC2)cc1C | 0.1 | -0.2
Cc1nc(-c2c(-c3c(C)cc(O)cc3O)n[nH]c2C(F)(F)F)cs1 | -0.5 | -1.6
CCCCN(CC(=O)N(CCc1c[nH]c2ccccc12)Cc1ccc(C(C)(C)C)cc1)C(=O)Cc1ccccc1 | -11.8 | -0.6
O=C(c1ccc(=O)[nH]c1)N1CCCC2(C=Cc3ccccc3O2)CC1 (stereo unspecified) | -2.3 | -4.6
Cc1cccc(-c2noc(N3CCOCC3)c2CN(CC2CC2)C(=O)c2ccc(F)cc2)c1 | 0.5 | 2.1
CCOC(=O)c1cc(-c2ccc(N3CCN(C(=O)c4cccs4)CC3)cc2)n(-c2ccccc2Cl)n1 | 20.2 | 5.7
Cc1ccc(NC(=O)c2cccc(C(C)(C)C#N)c2)cc1Nc1ccc2ncn(C)c(=O)c2c1 | -1.8 | -5.8
Cc1ccc(S(=O)(=O)N2CCN(c3ccc(-n4cccn4)nn3)CC2)cc1 | -1.9 | -7.2
CN(Cc1cn[nH]c1-c1ccc(F)cc1)C(=O)c1ccccc1C1CCNC1 (stereo unspecified) | 16.4 | 14.9
Cc1cn2c3c(=O)n(C)c(=O)n(C)c3nc2n1C(C)C | -0.1 | 23.5
CC1(C(=O)NS(=O)(=O)c2ccccc2Cl)CCN1C(=O)Cc1ccsc1 (stereo unspecified) | -0.3 | -3.4
COc1ccc(OC)c(-c2cccc(-c3cccc(NC(=O)CCc4ccccc4)c3)n2)c1 | -5.3 | -4.6
Cc1nc(CNC(=O)[C@H](N)CC(C)C)nc2c1CCCC2 | 1.6 | 0.9
Cc1oc(CO)cc1C(=O)O | 5.3 | 12.5
CCc1cc(=O)[nH]c(-n2nc(C)cc2NC(=O)c2ccc(S(=O)(=O)N(C)C)cc2)n1 | 9.5 | 1.0
CN(C)S(=O)(=O)c1ccc(NC(=O)C2COc3ccccc3O2)cc1 (stereo unspecified) | 17.3 | 9.2
O=S(=O)(Nc1ccccc1F)c1cnc[nH]1 | 12.8 | 4.2
Cc1nc(C(C)C)sc1C(=O)NC(C)c1ccc(F)cc1 (stereo unspecified) | 7.0 | 3.6

One compound at a time, from the list above.
CN(Cc1cn[nH]c1-c1ccc(F)cc1)C(=O)c1ccccc1C1CCNC1 (stereo unspecified) reads NPYLR7 ag = 16.4; NPYLR7 ag max-min = 14.9
CCCCN(CC(=O)N(CCc1c[nH]c2ccccc12)Cc1ccc(C(C)(C)C)cc1)C(=O)Cc1ccccc1 reads NPYLR7 ag = -11.8; NPYLR7 ag max-min = -0.6
COc1ccc(CCn2nc(C(=O)N(C)C)c3c2CCN(C(=O)c2n[nH]c4c2CCCC4)C3)cc1 reads NPYLR7 ag = 20.2; NPYLR7 ag max-min = 7.3

Structures from the list above with a Cl atom (3):
SMILES | NPYLR7 ag | NPYLR7 ag max-min
COc1ccc(Br)cc1S(=O)(=O)Nc1ccc(C)c(Cl)c1 | 5.3 | 4.2
CCOC(=O)c1cc(-c2ccc(N3CCN(C(=O)c4cccs4)CC3)cc2)n(-c2ccccc2Cl)n1 | 20.2 | 5.7
CC1(C(=O)NS(=O)(=O)c2ccccc2Cl)CCN1C(=O)Cc1ccsc1 (stereo unspecified) | -0.3 | -3.4

Laid out differently: results already given
| Molecule | NPYLR7 ag | NPYLR7 ag max-min |
| --- | --- | --- |
| Cc1ccc(NC(=O)c2cccc(C(C)(C)C#N)c2)cc1Nc1ccc2ncn(C)c(=O)c2c1 | -1.8 | -5.8 |
| COc1ccccc1CN1C(=O)C(C)Sc2ccc(C(C)=O)cc21 (stereo unspecified) | -1.2 | -4.3 |

Continued:
SMILES | NPYLR7 ag | NPYLR7 ag max-min
CC(C)CN1CCC(NC(=O)N2CC=C(c3ccccc3)CC2)CC1 | -0.6 | -0.7
CCN1CCCC(CN(C)c2nc3nonc3nc2NCCCOC)C1 (stereo unspecified) | -0.5 | -4.2
COCCSc1nc(SC)nc2c3c(sc12)CC(C)(C)OC3 | -11.7 | -20.1
N#Cc1cc(F)c(S(=O)(=O)N2CCCC3CCCCC32)c(F)c1 (stereo unspecified) | 3.6 | -1.0
Cc1cccc(C(=O)N(Cc2cccc(F)c2)Cc2cc(NC(=O)C3CC3)ccc2N(C)C)c1 | 2.3 | 9.5
COC(=O)c1ccc(CSc2nc3sc4c(c3c(=O)n2CC2CCCO2)CCC4)o1 (stereo unspecified) | 1.7 | 1.3
CC1(C(=O)Nc2cccc(Oc3ccccc3)c2)CCN1C1Cc2ccccc2C1 (stereo unspecified) | 5.3 | 5.3
CCCc1nn(-c2ccccc2)c(C)c1C(=O)NCc1cccnc1 | 4.2 | -1.0
CC(NC(=O)COc1ccccc1F)C1CC2CCC1C2 (stereo unspecified) | -16.7 | -17.3
O=C(Nc1ccc2c(c1)OCO2)c1cnn(-c2ccccc2)c1C(F)(F)F | 0.9 | 4.5
CC(=O)NC1(C(=O)N(C)Cc2c(C)noc2C)CCCCC1 | -4.8 | -6.5
COc1ccc(OC)c(C2SCC(=O)N(CC(=O)N3CCCC3)c3c2c(-c2ccccc2)nn3-c2ccc(F)cc2)c1 (stereo unspecified) | 14.8 | 13.4
CCCCNC(=O)C1(C)CCN1C(=O)c1cccc2c1OCCO2 (stereo unspecified) | 7.4 | 4.2
CC(C)Oc1cccc(C(=O)C2CCCN(Cc3ccc(Oc4ncccn4)cc3)C2)c1 (stereo unspecified) | 11.8 | 8.7
Cc1ccccc1-c1nn(-c2ccc(F)cc2F)cc1CN1CCC(C(N)=O)CC1 | 1.5 | 2.6
CS(=O)(=O)c1cccc(C(=O)Nc2ncc(Cc3ccc(C(F)(F)F)cc3)s2)c1 | -2.6 | -7.6
CC(C)SCC(=O)Nc1cnc2ccccc2c1 | 2.6 | 1.8
O=C(c1cn(-c2ccccc2)nn1)N(Cc1cnn(-c2ccccc2)c1)C1CC1 | 3.1 | 2.3
CC1(C)O[C@@H]2C[C@@](OCc3cccc(C(F)(F)F)c3)(C(=O)NCC3CCCO3)CC(OCc3ccccc3F)[C@@H]2O1 (stereo partly specified) | 15.5 | 5.3
CCOCCCN(CC(=O)N(Cc1cccn1Cc1ccccc1Cl)CC(C)C)C(=O)COc1ccccc1 | -13.1 | -12.0
Cc1ccc(NC(=O)CSc2ccc3nnc(CCNC(=O)c4ccc(F)cc4)n3n2)cc1Cl | 8.5 | -2.7
CSc1ccccc1OCc1cc(C(=O)NCc2ccc(C)s2)no1 | -0.8 | -3.8
O=[N+]([O-])c1cccc(NS(=O)(=O)c2ccc3cccc4c3c2CC4)c1 | 7.6 | 2.1
Cc1c(C(C)NCc2c(C)n(C)c3ccccc23)cnn1-c1ccccc1 (stereo unspecified) | 6.1 | 1.6
COc1ccc(-n2cc[nH]c2=S)cc1 | 17.7 | 29.1

The results go on.
SMILES | NPYLR7 ag | NPYLR7 ag max-min
CC(=O)O[C@H]1C[C@@]2(C)[C@@H](C[C@@H](O)[C@H]3[C@@]4(C)CC[C@@H](O)[C@@H](C)C4CC[C@@]32C)/C1=C(\CCC=C(C)C)C(=O)O (stereo partly specified) | 7.1 | 4.5
CCOc1ccccc1C(=O)Nc1c2c(nn1C(C)(C)C)CSC2 | -1.2 | -1.4
Cc1nc(Cc2nnc(SC(C)C(=O)N3CCC(C)CC3)o2)cs1 (stereo unspecified) | 7.9 | 7.8
On1c(-c2ccccc2Cl)nc2c1CCc1nonc1-2 | 3.7 | 21.7
CC1Oc2ccccc2N(Cc2ccccc2Cl)C1=O (stereo unspecified) | 5.1 | 3.4
COc1ccc(C(=O)Nc2c(N)nc(SCC(=O)Nc3ccccc3C)[nH]c2=O)cc1OC | 3.1 | 2.7
Cc1ccc(NC(=O)NC2CCN(c3ccccc3C(=O)NCCN3CCOCC3)CC2)cc1 | -3.5 | 2.9
COc1ccsc1C(=O)OCc1ncc(Cl)n1C | 5.7 | 2.3
CC1CCCN(Cc2ccc(C(=O)Nc3c4c(nn3C)CCC4)cc2)C1 (stereo unspecified) | 1.8 | -1.9
CC(C)(C)n1ncc2c(=O)n(NC(=O)c3ccc4ccccc4c3)cnc21 | 3.1 | 0.3
Cc1sc2ncn(CC(=O)N(C)Cc3cccs3)c(=O)c2c1C | -2.3 | -2.2
CCS(=O)(=O)Oc1cccc(CN(CC(C)C)S(=O)(=O)c2cccc3ccccc23)c1 | 6.1 | 9.6
CC1=NN(c2nc(C)cc(C)n2)C(=O)C1Cc1ccc(C(C)C)cc1 (stereo unspecified) | -8.6 | -13.2
Fc1ccc(-c2noc3nc(NCc4ccc5c(c4)CCO5)ccc23)cc1 | 2.2 | -0.9
Cc1ccc(NC(=O)c2cc(-c3ccc(Cl)c(Cl)c3)nc3ccccc23)nc1 | 1.6 | 4.2
Cc1ccc2nc(SCc3ccccc3)nc(=O)n2c1 | 2.9 | 0.0
O=C1C2C3C=CC(C3)C2C(=O)N1CNc1ccccc1 (stereo unspecified) | -7.9 | -12.8
c1cncc(CSc2ccc(-c3ccncc3)nn2)c1 | 9.5 | -1.4
COc1ccc(CC(=O)N2CCOC(Cc3ccccc3)C2)cc1F (stereo unspecified) | 17.0 | 21.4
Cc1cc(C)cc(C2(C(=O)NCCC(=O)NC3CCCC3)CCC2)c1 | -1.6 | -8.7
Cc1cc2c(c(-c3ncnc(Oc4cccnc4C)c3C)c1)OC(CN)C2 (stereo unspecified) | 12.1 | 6.9
CCOc1ccc2nc(NC(=O)c3cccnc3)sc2c1 | 2.8 | 8.2
CC1(C)NOC(c2ccccc2)=C1[N+](=O)[O-] | -6.9 | -11.1
Cc1ncc(CO)c(/C=N\N=C/c2cc(Br)ccc2OCc2ccccc2)c1O | -1.0 | 3.7
CCN(Cc1ccnn1-c1ccccc1)C1CCS(=O)(=O)C1 (stereo unspecified) | 6.2 | 2.7

An excerpt of these results, with each value named.
> Cc1cc2c(c(-c3ncnc(Oc4cccnc4C)c3C)c1)OC(CN)C2 (stereo unspecified)
  NPYLR7 ag: 12.1	NPYLR7 ag max-min: 6.9

> CCOc1ccc2nc(NC(=O)c3cccnc3)sc2c1
  NPYLR7 ag: 2.8	NPYLR7 ag max-min: 8.2

The list goes on.
SMILES | NPYLR7 ag | NPYLR7 ag max-min
CC(C)CCn1c(CCNC(=O)C(C)(C)C)nc2ccccc21 | -1.2 | 0.1
COC(=O)C1=C(Nc2ccc(C)cc2)C=C(C)C(C(=O)OC)C1c1cccc(OC)c1 (stereo unspecified) | -4.6 | -6.2
CN1CCN(C(=O)C2CCCN(c3nnc(-n4cccc4)s3)C2)CC1 (stereo unspecified) | 2.4 | -1.5
O=C(OCc1cnn(-c2ccccc2)n1)C1CCc2cn[nH]c2C1 (stereo unspecified) | 9.7 | 7.9
CC(C)c1ccc(NC2CCCN(C(=O)CN3CCCC3=O)C2)cc1 (stereo unspecified) | 1.5 | 0.2
COc1ccc(N2C(=O)CC(SC(N)=N/N=C(/C)c3ccc(O)cc3)C2=O)cc1 (stereo unspecified) | -9.7 | -12.0
COc1cc(C(=O)N2CCNC(=O)C2c2ccc(F)cc2)ccc1O (stereo unspecified) | -2.1 | -5.2
CCOC(=O)c1nn(-c2ccccc2)c(=O)cc1NCc1ccc(Cl)cc1 | 5.0 | 0.9
Brc1ccc(OCc2nc(-c3ccncc3)no2)cc1 | 1.2 | -0.9
C=C(C)CN(CC)Cc1nc(-c2ccc(F)cc2)oc1C | 14.7 | 5.6
CC(C)Cn1c2ccc(Cl)cc2c2nc3ccccc3nc21 | 12.5 | 13.3
CC(=O)c1ccc(NC(=O)CC2CSc3nc4[nH]ncc4c(=O)n32)cc1 (stereo unspecified) | 0.0 | 22.4
CC(=O)N1c2ccccc2Oc2c(c(=O)n(C)c(=O)n2C)C1c1cccc([N+](=O)[O-])c1 (stereo unspecified) | 1.6 | 1.5
O=C(c1ccc(Nc2cccc(C(F)(F)F)c2)nc1)N1CCCC1c1ccncc1 (stereo unspecified) | -5.6 | -13.1
CON(C)C(=O)c1cnc2c(cnn2CC(C)C)c1 | 5.0 | 1.6
CCC(C)N(Cc1c(C)nn(-c2ccccc2)c1N1CCN(CC)CC1)C(=O)COC (stereo unspecified) | 2.4 | 6.6
COc1ccc(Cn2c(-c3ccccc3)nc3oc4cc(OC)ccc4c(=O)c3c2=O)cc1 | -2.1 | -1.2
O=C(NCC1CCCO1)c1ccc(CSc2nnc3ccccn23)cc1 (stereo unspecified) | -2.6 | -6.8
Oc1ccc(Nc2nc3nonc3nc2Nc2ccccc2I)cc1 | -0.4 | -3.0
OCCC1CN(Cc2cnn(-c3ccccc3)c2)CCN1Cc1ccccc1 (stereo unspecified) | 1.2 | -2.5
O=C(O)c1cccc2c1CCCN2C(=O)c1ccccc1SC(F)F | 5.2 | 5.1
Cc1cc2nc(C(=O)N3CCc4c(nc(N(C)C)[nH]c4=O)C3)cc(C)n2n1 | 7.4 | 6.9
CN(CCC#N)S(=O)(=O)c1ccc2c(c1)oc(=O)n2C | 3.3 | 3.3
CN(CC(=O)N1CCCCCC1Cc1cccs1)S(C)(=O)=O (stereo unspecified) | 0.3 | -0.6
COCC(NC(=O)c1cc2ccccc2s1)c1ccnn1C (stereo unspecified) | -4.0 | -5.1
COCCCNc1ccc2c(-c3ccccc3OC)noc2n1 | -4.2 | -1.0

Assay outcomes (PubChem BioAssay)

These rows are one share of the data (hit frequency here may not be typical).
